Bioassay records (PubChem)
Six1-Eya2 blk: blocks human Six1 binding to Eya2; Q15475+O00167; activity change, % (test concentration not listed); AlphaScreen GST-Six1/His-Eya2 binding, biochemical; active compounds read low; control for the full effect not named in the record; 360,000 tested, 0.56% active; AID 651725; in the data active = activity change below about -65%; inconclusive = about -30% to -65%; inactive = above about -30%; further: on the % scale 0 is the no-effect control and ±100 the full control effect
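Six1/Eya2 binding was read as AlphaScreen signal after compounds were pinned into GST-Six1 plus His-tagged Eya2 (5X stock 250/500 nM) in pH 8.0 Tris/NaCl/TCEP buffer, beads added, then incubated 1 h, 37 C, dark.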
TRPV1 PAM: potentiators of human vanilloid receptor 1 (TRPV1); TRPV1-expressing cells, Fluo-8 calcium influx, capsaicin EC20 potentiation; host cell line not named in the record; control for the full effect not named in the record; potentiation, % at 8.33 µM; 320,000 tested, 0.02% active; AID 540277; active means potentiation above 80%; inconclusive means 30% to 80%; inactive means below 30%; further: 0% is about no effect
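Fluo-8 calcium influx in TRPV1-expressing cells, kinetic read (ex 480/em 520 nm). Compound added and read 3 min for agonist activity, followed by capsaicin at EC20 final and 2 min further read for enhancement.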
D2 potentiator: human D2 receptor positive allosteric modulation; DiscoveRx D2 beta-arrestin cells, luminescence, 90 min; 100% = 57 uM dopamine signal; potentiation, % (concentration not given with the values); AID 624464; 360,000 tested, 0.23% active; P14416; active = potentiation of 50% or more; inconclusive = 30% to 50%; inactive = 30% or less;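 further: compound concentration not given in the record; tested on top of an EC20 dose of dopamine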
Target sequence (P14416 whole entry, looked up): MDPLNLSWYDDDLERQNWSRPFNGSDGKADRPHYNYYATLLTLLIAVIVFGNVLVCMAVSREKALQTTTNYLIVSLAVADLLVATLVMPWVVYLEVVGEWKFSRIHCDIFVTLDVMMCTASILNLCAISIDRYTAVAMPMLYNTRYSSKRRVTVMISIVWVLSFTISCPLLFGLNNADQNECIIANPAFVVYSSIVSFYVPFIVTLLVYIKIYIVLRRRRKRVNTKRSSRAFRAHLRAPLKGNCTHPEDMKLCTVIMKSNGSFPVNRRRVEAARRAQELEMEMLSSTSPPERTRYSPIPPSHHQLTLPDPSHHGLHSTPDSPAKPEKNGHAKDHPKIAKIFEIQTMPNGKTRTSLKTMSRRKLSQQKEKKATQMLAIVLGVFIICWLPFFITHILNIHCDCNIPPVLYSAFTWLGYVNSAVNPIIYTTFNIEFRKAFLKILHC
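PathHunter beta-arrestin assay in DiscoveRx D2 cells. Compounds were added with an EC20 of dopamine (50 nM final) for 90 min at 37 deg C. Luminescence was read 1 h after detection reagent, with 57 uM dopamine as the EC100 control.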
Sfp PPTase inh: Sfp phosphopantetheinyl transferase inhibition; Biochemical Sfp PPTase activity, qHTS; Potency, µM, inactives show max response, negative = inhibition, actives largely listed as inhibitors; 310,000 tested, 3.5% active; AID 1490; active means well fitted inhibition curve with a large enough effect; inconclusive means small, poorly fitted or top-dose-only effect, or another doubt; inactive means no such curve, though single readings can be large or run the other way;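 further: the enzyme is Sfp with the accession as filed and its product quenches rhodamine fluorescence; potency means the concentration at half of the fitted maximal effect; 0% = enzyme reaction without inhibitor and -100% = no enzyme wells; top concentration of the series not given in the record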
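Sfp 15 nM + cpd, 15 min RT; start w/ rhodamine-CoA 5 uM, BHQ-2-YbbR 12.5 uM (final); 50 mM Hepes pH 7.6, 10 mM MgCl2, 0.01% NP-40, 0.01% BSA; read 525/598 nm at 0 and 30 min.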
CtBP-E1A blk: CtBP/E1A binding inhibition; AlphaScreen GST-E1A/His-CtBP binding, 1536-well; active compounds read low; control for the full effect not named in the record; activity change, % (concentration not given with the values); 340,000 tested, 0.49% active; in the data active means activity change below about -65%; inconclusive means about -30% to -65%; inactive means above about -30%; further: on the % scale 0 is the no-effect control and ±100 the full control effect
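AlphaScreen with 125 nM GST-E1A and 125 nM His-CtBP (5X stocks) in Tris pH 8.0, 300 mM NaCl, BSA, Tween 20, TCEP. Compounds preincubated 2 h at 37 deg C, then glutathione donor/nickel acceptor beads added for 1 h at 37 deg C in dark.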
PINK1 expr mod: modulators of PINK1 expression; PINK1 immunofluorescence, high-content cytometry, 24 h; Potency, µM (series often up to 76.6 µM), inactives show at the top dose activation (PINK1 increase), most hits filed as activators; 410,000 tested, 0.2% active; AID 624263; active = well fitted activation curve with a large enough effect; inconclusive = small, poorly fitted or top-dose-only effect; inactive = flat fitted curve, though single readings scatter; cell line not stated here;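 further: potency means the concentration at half of the fitted maximal effect; % of control where 0% means no effect; nearly all actives have a fitted effect of over 65% in size; a mitochondrial uncoupler was the plate control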
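Stable cell line, 250 cells/well, 12 h attachment; compounds pinned at 5 concentrations, 24 h; CCCP control. Fixed with nuclear dye, primary antibodies 12 h at 10 degrees C, secondary plus cell stain; laser-scanning cytometer read.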
D2 agonist: human D2 receptor agonism in beta-arrestin assay | P14416 | DiscoveRx PathHunter D2 beta-arrestin, luminescence, 90 min; 100% = 57 uM dopamine signal | activation, % (no concentration beside the values) | 360,000 tested, 0.084% active; in the data active = activation above about 40%; inconclusive = about 15% to 40%; inactive = below about 15%; further: compound concentration not given in the record; the text of the record calls up to 30% inactive
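DiscoveRx PathHunter D2 beta-arrestin cells (2,100/well) attached overnight, then compound-stimulated 90 min at 37 C in HBSS/10 mM HEPES/0.1% Tween-20 buffer; beta-galactosidase complementation read by luminescence after 1 h at ambient temperature. Dopamine 57 uM final (EC100) as control.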
Numbers without * were called inactive; ? = inconclusive; . = no result given; & = joins results of further samples; [ ] = another dose, or the depositor's remark. Random draw from the library; about 3.7% have a hit in one of these screens.

No.	Molecule	Six1-Eya2 blk	TRPV1 PAM	D2 potentiator	Sfp PPTase inh	CtBP-E1A blk	PINK1 expr mod	D2 agonist
1	Cc1ccccc1CSc1n[nH]c(NS(=O)(=O)c2ccccc2)n1	-3.2	-18.6	0.4	-4.4%	-1.1	2.8%	-4.5
2	O=C(O)CCC(=O)Nc1ccc2c(c1)Cc1cc(NC(=O)CCC(=O)O)ccc1-2	-2.1	-13.2	-7.1	-7.9%	.	1.1%	-1.0
3	CC1CCCCN1CC(=O)c1c(N)n(Cc2ccccc2)c(=O)n(C)c1=O (stereo unspecified)	-2.4	-6.9	-14.8	14.1%	1.5	1.3%	-3.1
4	O=C(NCc1ccccc1)c1ccc2c(=O)[nH]c3c(C(=O)NCC4CCCO4)sc(=S)n3c2c1 (stereo unspecified)	?	6.4	5.0	-15.7%	1.9	1.3%	-3.4
5	COc1ccc(-c2oc3cccnc3c2/C=C/c2ccc(OC)c(OC)c2)cc1	24.3	-7.0	8.8	-18.4%	53.3	0.6%	-0.9
6	CC(=O)NCCc1nc2cc(NC(=O)c3ccccc3Cl)ccc2n1C	-1.8	-5.6	-9.2	14.1%	-5.4	0.2%	8.6
7	O=C(NCc1ccc(F)cc1)C1Cc2ccccc2CN1C(=O)c1ccco1 (stereo unspecified)	2.1	0.6	-12.5	4.2%	.	1.2%	2.6
8	O=C(Nc1nc2cc3c(cc2s1)OCCO3)C1CCCCC1	2.7	-5.7	-13.7	.	-3.4	7.2%	-0.6
9	O=C(CCN1CCN(c2ccccc2)CC1)NNC(=O)Cc1ccc(Br)cc1	-5.3	-4.8	-27.1	.	2.6	-1.5%	12.2
10	Cc1c(Br)c([N+](=O)[O-])nn1CC(=O)Nc1ccccn1	0.9	4.7	-11.0	13.0%	-4.1	5.4%	-7.3
11	CCOc1ccccc1C(=O)NCCc1cnc[nH]1	3.4	6.0	-15.2	-7.8%	-1.3	-0.7%	-4.9
12	COCCN(C(=S)Nc1ccc(C)cc1)C(C)c1cccnc1 (stereo unspecified)	3.2	3.8	-6.6	?	2.3	-0.3%	-3.9
13	Cc1ccc(C(=O)Nc2ccc3c(c2)OCO3)cc1	-4.5	0.5	-9.1	4.3%	-16.0	?	-0.2
14	Cc1ccc(NC(=S)c2ccccc2)cc1	-5.5	-16.8	-25.1	9.0%	1.2	-0.6%	0.0
15	Nc1cccc(NC(=O)CN2CCOCC2)c1	-3.8	10.4	-2.0	4.6%	9.6	-1.6%	-4.9
16	O=C(NCCc1ccccc1)c1cc(-c2ccncc2)nc2ccc(S(=O)(=O)N3CCOCC3)cc12	2.6	5.6	-4.2	3.3%	.	0.4%	3.8
17	Nc1ccccc1SCc1cn2cccnc2n1	3.9	5.1	-14.7	-12.1%	3.7	1.5%	-7.4
18	O=C(COc1ccc(S(=O)(=O)N2CCCC2)cc1[N+](=O)[O-])N1CCCC1	5.6	16.9	3.1	.	-1.2	0.6%	-0.7
19	Cc1ccc(C)c(NC(=O)c2cc(=O)c3ccccc3o2)c1	1.0	3.2	-22.1	-4.5%	3.8	4.1%	-5.6
20	Cc1[nH]n(-c2ccccc2)c(=O)c1N=Nc1cccc(C(=O)O)c1	-4.4	2.7	-3.0	-8.4%	-5.7	-0.6%	2.3
21	O=c1cc(-c2ccccc2F)oc2ccccc12	-4.6	-9.1	-7.2	-4.7%	-1.2	-1.5%	-2.2
22	COc1cccc(C2CC(c3ccccc3)Nc3nc(N)nn32)c1 (stereo unspecified)	7.0	2.5	-4.5	13.5%	3.5	3.5%	-3.9
23	CCCCCn1c(SCC(=O)OC)nc2c1c(=O)[nH]c(=O)n2C	-1.9	18.2	-11.0	20.8%	-2.2	-1.3%	-3.7
24	CCCCC(c1nnnn1CCOC)N1CCN(Cc2ccccc2)CC1 (stereo unspecified)	1.6	-8.6	-37.6	5.1%	0.3	-3.0%	-1.9
25	O=C(O)c1csc(-c2cccs2)n1	4.5	-3.5	-1.5	13.9%	-17.3	-0.1%	-0.8
26	O=C(Nc1ccccc1N1CCCCC1)c1cccs1	13.7	-9.9	-0.4	-3.3%	9.3	7.6%[38.3 µM]	3.2
27	CC(C)(C)c1ccc(NC(=O)c2ccc(=O)[nH]n2)cc1	-11.0	-1.2	-5.3	5.8%	-15.0	3.3%	-1.4
28	COCc1nnc(NC(=O)CCc2ccccc2)s1	5.3	11.0	4.9	3.5%	3.0	-1.1%	-0.5
29	O=C1N(Cc2cccnc2)C[C@@H]2C[C@@H](c3ccccc3C#Cc3ccccc3)N3CCC[C@@]123	-3.7	-6.9	-8.4	-9.0%	3.5	0.3%	3.9
30	O=C(O)c1ccc(Cl)c(S(=O)(=O)Nc2ccccc2N2CCOCC2)c1	14.2	-2.0	-9.0	6.9%	.	1.4%	4.9

(more compounds)
No.	Molecule	Six1-Eya2 blk	TRPV1 PAM	D2 potentiator	Sfp PPTase inh	CtBP-E1A blk	PINK1 expr mod	D2 agonist
31	O=C(COc1ccccc1F)N1c2ccccc2CCc2ccccc21	3.5	1.1	-0.3	-2.1%	-0.4	2.6%	-5.7
32	O=[N+]([O-])c1ccccc1S(=O)(=O)NCc1ccc(F)cc1	-0.3	6.6	5.5	28.7%	4.3	0.8%	8.6
33	O=C(c1cc2nc(-c3ccco3)cc(C(F)(F)F)n2n1)N1CCN(Cc2ccccc2)CC1	-16.0	-13.4	1.4	-9.4%	-18.4	7.5%[38.3 µM]	-3.3
34	CC(NCC(=O)Nc1ccccc1C(=O)NC1CC1)c1ccc(F)cc1F (stereo unspecified)	-1.0	-14.0	-11.3	.	1.2	0.3%	-0.8
35	CCOC(=O)CSc1nc(-c2ccc(OC)cc2)ns1	23.2	5.6	-7.3	22.4µM*	13.4	1.6%	0.2
36	COc1ccccc1N1C(=N)S/C(=C\c2ccc(-c3ccccc3C(=O)O)o2)C1=O	?	0.4	0.2	?	-0.2	1.3%	-10.6
37	CC(C)C(=O)N(Cc1ccccc1)S(=O)(=O)c1ccc2c(c1)oc(=O)n2C	-0.6	17.7	-3.6	22.8%	2.6	2.4%&4.8%	-4.3
38	CC(C)(C)n1nnnc1C(c1ccc(Cl)cc1)N1CCSCC1 (stereo unspecified)	-0.7	-14.2	-19.0	6.0%	-5.8	0.1%	10.0
39	COc1ccccc1-n1nc(C(=O)Nc2ccc3c(c2)OCO3)c2ccccc2c1=O	13.0	6.5	-6.2	11.5%	-3.9	14.0%	3.1
40	CCS(=O)(=O)N1Cc2ccccc2CC1C(=O)Nc1nc2ccccc2[nH]1 (stereo unspecified)	-2.1	10.4	-3.2	6.3%	-4.2	-1.5%	0.0
41	Cc1ccc(C#CC[N+](C)(C)CC#Cc2ccccc2)cc1	3.3	12.1	-21.3	?	-0.5	1.0%	-5.5
42	CCOC(=O)CNc1ccc(OC(F)(F)F)cc1	18.7	-6.3	-4.9	7.0%	11.2	3.8%	-2.5
43	Cn1c(C(=O)OC(C(=O)NC2CCCC2)c2ccncc2)cc2sccc21 (stereo unspecified)	-1.4	-16.3	7.9	-4.3%	-2.4	-5.3%[38.3 µM]	1.7
44	COc1cccc(CNC(=O)COC(=O)c2ccc(Cl)s2)c1	4.2	.	-5.2	.	3.2	-0.2%	1.1
45	CCC1(C)C2(C#N)C(N)=NC(OC)(OC)C12C#N (stereo unspecified)	1.9	3.3	-4.6	15.2%	-0.8	-0.6%	-3.0
46	Cc1ccc2[nH]c(=O)c(CN(CCCN3CCOCC3)C(=O)Nc3ccc(Cl)cc3)cc2c1	3.5	-2.3	-14.0	8.4%	.	1.5%	4.4
47	O=C(Nc1ccc2nn(-c3ccccc3)nc2c1)c1ccc(Br)o1	-1.3	-2.5	-5.2	-14.0%	6.3	?	2.0
48	Cc1ccc(S(=O)(=O)Nc2ccccc2CNc2ncc(Br)cc2Br)cc1	-4.0	?	15.1	-3.1%	6.3	?	7.0
49	O=C(CSc1ccsc1[N+](=O)[O-])NCCc1ccc(Cl)cc1	7.0	-8.7	5.2	10.1%	0.8	9.2%	-3.3
50	Cn1ccsc1=NC(=O)c1ccc([N+](=O)[O-])o1	-15.5	-8.8	-22.0	9.4%	-4.7	-0.1%	5.7
51	COc1ccc(-c2oc3c(c2C(=O)OCCO)C(OCCCO)CCC3)cc1 (stereo unspecified)	28.2	.	.	.	3.5	0.4%	.
52	COc1ccc(CCNC(=O)COC(=O)c2ccc([N+](=O)[O-])o2)cc1	-0.4	-8.9	-3.3	.	-1.5	4.8%	-1.4
53	N#Cc1ccc(C(=O)OCC(=O)NC(=O)NC2CCCCC2)cc1	-1.0	22.1	-5.6	.	8.1	1.8%	-4.5
54	O=C(ONC1=NCCCCC1)c1cccc([N+](=O)[O-])c1	-3.0	-4.5	54.7*	17.4%	-18.2	0.8%	8.2
55	Cc1cn([C@H]2C[C@H](O)[C@@H](/C=C/C(=O)NCc3ccccc3)O2)c(=O)[nH]c1=O	4.6	.	2.9	.	6.5	-0.6%	-3.8
56	CN(C)Cc1nc2ccccc2c(=O)n1Cc1nc(C(C)(C)C)cs1	-1.0	-16.7	15.5	9.8%	14.2	15.1%	0.8
57	Cc1c(C)c2c(OCC(=O)NCC(=O)NCC(=O)O)cc3c(c2oc1=O)CCC(C)(C)O3	?	2.8	2.3	15.3%	?	5.1%	0.2
